# UUG fidelity: alters start codon recognition fidelity in yeast | S. cerevisiae UUG-firefly luciferase reporter, luminescence/redox ratio | activity score, % at 18.7 µM | 350,000 tested, 0.13% active;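 active means replicate mean at a twofold rise or more, about +100% in these data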;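 further: firefly luciferase made from a UUG start codon reports start codon fidelity; reporter light over untreated wells divided by growth signal over untreated wells; some hits fall short of that in this replicate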
# eIF4H FP inh: inhibitors of RNA binding by human eIF4H; 290,000 tested, 0.94% active; inhibition, % at 35 µM; eIF4H fluorescence polarization binding assay; Q15056; AID 2012;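 active means 50% or more with normal probe brightness, or confirmed in later tests; inconclusive means above 50% with abnormal brightness, or retests that disagree; inactive means below 50% or failed in later tests; about a fifth of its hits are not listed in these tables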;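 further: calls also rest on retests at 20 µM and on dose response follow-up; 0% = protein and probe with vehicle and 100% = probe without protein; strong numbers were not always called active; many hits fall short of the cut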
# Env fusion inh: HIV envelope-mediated fusion inhibition | 360,000 tested, 1.1% active | HeLa-JRFL Env/CEM21 cell fusion, luciferase | inhibition, % at 12.3 µM;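 active means mean replicate inhibition score of at least 50 and every replicate individually at or above 50; inconclusive means only one of the two criteria met; inactive means mean below 50 and not all replicates reaching 50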;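 further: 0% = plate neutral controls and 100% = maraviroc near 300 nM; one replicate is shown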
# PABP polyA inh: blocks human PABP binding to poly(A) RNA; P11940; fluorescence polarization; inhibition, % at 35 µM; 290,000 tested, 1% active; AID 2014;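 active means 50% or more with normal probe brightness, or confirmed in later tests; inconclusive means above 50% with abnormal brightness, or retests that disagree; inactive means below 50% or failed in later tests; about a fifth of its hits are not listed in these tables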;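 further: calls also rest on retests at 20 µM and on dose response follow-up; controls were probe without protein and protein plus probe with vehicle; some compounds called inactive have numbers as strong as hits; many hits fall short of the cut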
# Target sequence (P11940 whole entry, looked up): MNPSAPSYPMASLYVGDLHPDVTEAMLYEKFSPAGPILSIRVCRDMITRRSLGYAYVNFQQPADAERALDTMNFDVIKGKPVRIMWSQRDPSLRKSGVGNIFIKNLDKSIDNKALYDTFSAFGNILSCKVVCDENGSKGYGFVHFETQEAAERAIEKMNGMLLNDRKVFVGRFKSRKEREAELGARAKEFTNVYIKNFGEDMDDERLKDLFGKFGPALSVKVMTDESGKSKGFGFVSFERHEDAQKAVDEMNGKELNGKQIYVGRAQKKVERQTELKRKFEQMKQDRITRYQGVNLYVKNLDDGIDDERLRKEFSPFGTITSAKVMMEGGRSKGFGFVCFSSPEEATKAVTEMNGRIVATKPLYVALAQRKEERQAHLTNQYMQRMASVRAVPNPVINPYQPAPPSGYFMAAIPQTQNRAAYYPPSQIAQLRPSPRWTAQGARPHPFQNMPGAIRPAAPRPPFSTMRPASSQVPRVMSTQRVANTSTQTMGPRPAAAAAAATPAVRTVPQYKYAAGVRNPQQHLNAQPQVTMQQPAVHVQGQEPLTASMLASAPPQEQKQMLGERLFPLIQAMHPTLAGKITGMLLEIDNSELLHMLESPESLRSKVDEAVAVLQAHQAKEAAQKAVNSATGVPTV
# Rce1 inh: inhibitors of yeast Ras-converting enzyme | calls only | yeast membranes, quenched prenylated peptide cleavage fluorescence | AID 2563 | 290,000 tested, 0.27% active;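 active means fall in fluorescence gain of 50% or more versus controls, with final raw signal at or below 3038400; inconclusive means same 50% fall but final raw signal above 3038400; inactive means fall in fluorescence gain under 50%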;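 further: plate controls were neutral control wells for no effect and wells lacking membranes for full effect; tested at 10 µM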
# CSC inhib: blocks cancer stem cells; cancer stem cell-like cells viability, luminescence; inhibition, % at 7.5 µM; 300,000 tested, 1.1% active; AID 2717;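 active means mean at 75% or more and at least half the replicates too; inconclusive means mean and replicates disagree; tested in HMLE shEcad cells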;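 further: 0% = median of negative and 100% = median of positive control wells; the first replicate is given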
# MT1-MMP act inh: blocks activation of human MT1-MMP; P50281; HT1080 RFP-PRO-GFP cells, GFP/RFP ratio fluorescence, overnight; percent of plate control window, DMSO zero; GFP/RFP ratio change, % at 20 µM; 360,000 tested, 0.061% active;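 active means GFP/RFP ratio change of at least 30% with cell ATP level not reduced by more than half and red fluorescence within 50% of control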; further: strong numbers were not always called active
#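 Assay system: HT1080 RFP-PRO-GFP cells. Benchmarks: DMSO vehicle wells and RFP-L50D-GFP reporter cell wells. Times: overnight cell settling, then overnight compound exposure, 37 °C, 5% CO2. Compound: 20 µM single dose, 1% DMSO. Read-out basis: GFP/RFP fluorescence ratio.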
# eIF4H FP inh retest: also measured in eIF4H FP inh; calls as there; inhibition, %; compound at 20 µM; confirmation average;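 mean of two retest wells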
# PABP polyA inh retest: further read-out of PABP polyA inh, marked with its call; inhibition, %; compound at 20 µM; confirmation repeats;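 mean of two retest wells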
# MT1-MMP act inh RFP: further read-out of MT1-MMP act inh, marked with its call; RFP signal change, %; measured here: RFP expression control read;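 0 = vehicle wells; hits needed this value within 50% of zero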
# Starred values were filed as active, the others as inactive; i = inactive; u = inconclusive; x = no result given; & = joins results of further samples. Not all compounds are listed (hit frequency here may not be typical).
SMILES,UUG fidelity,eIF4H FP inh,Env fusion inh,PABP polyA inh,Rce1 inh,CSC inhib,MT1-MMP act inh,MT1-MMP act inh RFP,others
CC(C)Cn1c(SCC(=O)O)nnc1-c1cccc(S(=O)(=O)N2CCOCC2)c1,-6.4,x,x,x,x,-18.2,-0.9,2.7,
O=C(COC(=O)c1cnc(Cl)c(Cl)c1)NCc1cccs1,x,1.0,3.7,9.5,i,3.6,-2.1,0.6,
C[C@H]1CN=C(N(C)C)N1CC1CCC(C(C)(C)C)CC1 (stereo not given in full),-5.0,x,20.5,x,x,39.8,5.1,1.1,
COC(=O)c1ccc(C23CC4(C2)[C@H](CN(Cc2cccnc2)[C@@H]4c2ccccc2)C3c2ccc(Cl)nc2)cc1 (stereo not given in full),-15.1,-10.8,41.1,4.7,i,4.3,-12.8,-22.5,
Cc1ccc(OC(C)C(=O)Nc2cccc(S(=O)(=O)N3CCCCCC3)c2)cc1 (stereo not given),-11.1,x,-25.1,x,x,x,-3.7,-9.3,
Oc1ccc(-c2nnc(SCC3CCCCC3)o2)cc1,-29.6,-7.4,-146.8,-6.9,i,71.0,3.2,2.0,
Cc1cc(C)c(S(=O)(=O)NCc2cccs2)cc1C,6.7,-14.9,-15.2,-3.0,i,16.2,-3.2,-1.5,
O=C(O)c1ccc(NS(=O)(=O)c2ccc3c(c2)OCCO3)cc1,-15.6,-11.7,-48.1,0.0,i,15.5,-0.3,1.0,
Cc1ccc(OCC(=O)N(C)CCc2ccccn2)cc1,-0.8,9.6,-10.9,11.2,i,-17.0,-4.1,-0.2,
COc1ccc(-n2c(C)cc(C=O)c2C)cc1Cl,3.3,-17.7,-215.4,1.9,i,-0.6,0.7,-4.0,
CNC(=O)/C(C#N)=C/c1c(N2CCCCCC2)nc2ccccn2c1=O,-9.7,21.4,4.7,4.6,i,9.8,-0.3,3.8,
O=C(NCc1ccccn1)c1ccc(OC2CCN(Cc3ccccc3O)CC2)cc1,-16.7,0.3,-9.5,-6.5,i,13.0,-0.2,-1.7,
O=c1[nH]c(=S)[nH]c2c1C(c1cc([N+](=O)[O-])c(N3CCOCC3)cc1N1CCOCC1)O2 (stereo not given),x,2.0,-20.9,0.8,x,0.9,1.9,4.3,
c1ccn(-c2ncnc3sc4c(c23)CCCC4)c1,10.7,-4.0,x,-0.1,x,-6.1,-5.9,-1.6,
Fc1ccc(CNC(=S)NCc2cccc(Cl)c2)cc1,-35.5,2.8,-9.0,-9.3,i,15.8,2.0,0.6,
Cc1noc(C)c1C(=O)OCC(=O)c1c(N)n(CC(C)C)c(=O)n(C)c1=O,-3.2,1.1,56.9,1.7,i,-11.6,-0.2,-1.5,
COC(=O)CCC(=O)N1CCC(CCC(=O)NCc2ccc(F)cc2)CC1,2.0,2.1,4.0,-0.9,i,-4.4,2.7,6.0,
O=c1oc([C@@H](O)c2ccccc2)cc2ccccc12,4.4,x,-158.3,x,x,-9.3,-0.5,1.5,
Cc1cc(NC(=O)CSc2ncc(CO)n2Cc2ccc(F)cc2)no1,3.1,x,-7.9,x,i,-19.8,-3.3,0.5,
O=C(/C=C/c1ccc(Cl)cc1)N1CCN(c2ccccc2[N+](=O)[O-])CC1,x,-2.4,x,4.0,i,9.4,-1.2,-2.3,
O=C(Nc1ccon1)c1ccc(S(=O)(=O)N2CCCCCC2)cc1,2.4,-1.1,x,-6.4,i,x,-1.4,0.8,
Cc1ccc[n+](-c2nc3ccccc3nc2C(=C=[N-])C#N)c1,-6.3,64.2&15.7,-8.2&5.0,20.2&30.2,i,-5.8&-12.7,-3.7&-3.7,8.4&7.5,eIF4H FP inh retest=24.1&8.0;PABP polyA inh retest=47.3&21.8
N#CC(C(=O)Nc1ccc(Cl)cc1)=C1Nc2ccccc2N1,-35.2,-3.4,x,6.3,i,-6.5,2.1,-2.5,
COCCNC(=O)C(c1ccc(C)cc1)N(CCOC)C(=O)CCC(=O)Nc1nccs1 (stereo not given),-4.4,-14.5,-2.5,-2.8,i,-5.8,0.5,4.0,
COc1ccc(OC)c(NC(=O)COC(=O)CC2CCCCC2)c1,-6.6,x,7.9,x,x,x,1.2,-0.7,

# (more compounds)
SMILES,UUG fidelity,eIF4H FP inh,Env fusion inh,PABP polyA inh,Rce1 inh,CSC inhib,MT1-MMP act inh,MT1-MMP act inh RFP,others
O=C(NCc1ccco1)/C(=C/c1ccccc1F)NC(=O)c1ccccc1,-5.1,5.6,2.1,-3.9,i,4.7,2.7,4.5,
Cc1sc(NC(=O)Cc2ccc3c(c2)OCO3)nc1-c1ccc2c(c1)CCN2C(=O)c1ccc(F)cc1,x,4.9,x,2.8,i,-1.4,-6.2,-26.5,
Cc1c(C(=O)C(=O)NCC2CCCO2)c2ccccc2n1C (stereo not given),-11.7,-12.3,-6.1,3.6,i,6.6,-1.7,-0.3,
Cc1ccccc1C(=O)Nc1sc(C)c(C)c1C(=O)c1ccccc1,-15.3,-8.0,10.7,-6.9,i,19.9,-5.3,-6.3,
C=CCNC(=S)N1CCN(Cc2ccccc2)CC1,x,8.3,-3.4,7.3,i,0.2,2.5,6.0,
CCc1ccccc1NC(=O)c1ccc(CN2CCC(Cc3ccccc3)CC2)cc1,-0.8,-2.9,x,-12.6,i,21.2,4.3,-13.0,
CC(C)CC(NC(=O)C(NC(=O)C1OC2OC(C)(C)OC2C2OC(C)(C)OC12)C(C)C)C(=O)O (stereo not given),x,-6.6,-17.0,0.9,i,-2.3,-0.6,6.5,
COc1ccc(S(=O)(=O)Nc2cccc(-c3ccc4nncn4n3)c2)cc1,-8.2,x,14.5,x,i,24.0,-2.7,-11.3,
COc1cc(O)c(CC=C(C)C)c(O)c1C(=O)CCc1ccc(O)cc1,-18.9,11.2,x,9.4,i,-6.1,5.4,-14.1,
Cn1c(NNC(=O)c2c(F)cccc2F)cc(=O)n(C)c1=O,x,-5.2,-8.2,2.9,i,-13.0,-3.2,4.5,
Cc1ccc(N2C(=O)N(CC(=O)NC(N)=O)C(=O)C2C)cc1 (stereo not given),x,-5.8,9.3,-2.8,x,-6.3,-0.2,3.5,
C[C@@H]1CCCCO[C@@H](CN(C)C(=O)CCC(F)(F)F)[C@@H](C)CN([C@H](C)CO)C(=O)c2cc(N(C)C)ccc2O1,9.7&-1.6,x,5.6,x,x,x,2.2,4.1,
OC(CNCC(c1ccco1)N1CCCCC1)c1ccccc1 (stereo not given),x,-7.1,-28.9,8.7,i,-7.5,-6.2,-1.0,
O=C(O)C1CCN(C(=O)c2ccco2)CC1,-6.0,23.7,13.1,0.3,i,-0.9,-3.6,0.9,
CN(C)CCCNC(=O)C[C@H]1C[C@H](C(=O)N2CCOCC2)[C@@]2(CCC3CCCC3)c3[nH]c4cc(CCC(=O)N(C)C)ccc4c3CCN2C1=O,-11.5,x,22.8,x,x,x,2.8,5.9,
O=C(c1ccco1)N1CCN(c2ccccc2F)CC1,x,-13.6,x,-2.3,i,5.1,3.1,5.6,
COCC1CCN(C(=O)C2CCC(=O)N(Cc3ccc(Cl)cc3)C2)CC1 (stereo not given),-9.7,-14.2,3.1,7.2,i,1.6,-3.6,-2.7,
COc1cc2[nH]c(=S)nc(NCCC(C)C)c2cc1OC,x,-5.2,-41.1,-7.9,i,-3.0,3.9,3.9,
CN(C)S(=O)(=O)c1cccc(N=C2SCCN2Cc2ccccc2)c1,-1.6,-1.1,-0.2,-7.1,i,1.0,-7.6,-27.1,
Cc1ccc(C)c(C(=O)CN2C(=O)NC3(CCCCCCC3)C2=O)c1,-13.6,-9.8,9.4,47.1,i,9.2,-3.4,-4.9,
COc1ccccc1CN1CCNC(=O)C1CC(=O)NCCCN1CCOCC1 (stereo not given),15.8,x,10.7,x,x,x,-3.4,-0.8,
Cn1c(=O)c2c(nc(CN3CCN(Cc4ccccc4)CC3)n2Cc2ccc(F)cc2)n(C)c1=O,-16.0,-5.7,-48.2,-3.0,i,24.5,-1.7,-0.8,
O=C(c1ccc(S(=O)(=O)N2CCCCC2)cc1)N1CCCC(C(F)(F)F)C1 (stereo not given),-13.6,x,25.2,x,i,7.5,1.9,-2.2,
O=C(Cn1[nH]c(=O)c2ccccc2c1=O)OCC(=O)c1ccc(F)cc1,x,x,0.5,x,x,-0.1,-0.5,2.0,
CSc1ncccc1C(=O)OCC(=O)NC1CCCc2ccccc21 (stereo not given),x,x,u,x,x,-6.5,5.6,3.2,

# Continuation:
SMILES,UUG fidelity,eIF4H FP inh,Env fusion inh,PABP polyA inh,Rce1 inh,CSC inhib,MT1-MMP act inh,MT1-MMP act inh RFP,others
COc1ccccc1NC(=O)c1ccc(-c2nn(C)c(=O)c3ccccc23)cc1,x,-5.5,-5.1,-8.6,i,10.7,4.9,-4.0,
Cc1ccccc1NC(=O)CCc1c(C)nn(-c2ccc(N3CCCCC3)nn2)c1C,-8.8,-4.5,-18.2,-10.0,i,2.7,-3.0,-3.2,
Cc1cnc(CN(C)C(=O)C2CCC(=O)N(CCc3ccccc3)C2)[nH]1 (stereo not given),-8.3,1.5,-0.9,14.0,i,-3.6,-17.1,-26.2,
COc1ccc(CN2CCN(C(=O)CCC(=O)Nc3nnc(C4CCCCC4)s3)CC2)cc1F,-6.7,-4.1,22.4,14.7,i,-27.2,0.6,-23.2,
O=C(O)c1nnn(-c2ccc([N+](=O)[O-])cc2)c1-c1ccccc1,x,-5.8,14.6,8.9,i,-5.9,5.3,5.2,
COc1ccc(NC(=O)c2cc3ccc(O)cc3o/c2=N\O)cc1,-11.1,-2.9,-284.8,2.0,i,75.4*,1.5,-3.7,
NC(=O)c1cc([N+](=O)[O-])ccc1NCC1CCCCC1,-13.0,x,-37.9,x,x,33.1,-1.6,-6.8,
CC1(C)CCN2CCC(C)(C)c3c(O)ccc1c32,-1.0,u,45.2,u,i,131.3*,-108.2,11.4,
COc1ccc(C(=O)NCCCNC(=O)c2cccnc2)cc1OC,-9.8,2.9,0.6,2.8,i,x,2.1,2.3,
CCCCNC(=O)C(=O)N/N=C/c1ccc(OCc2ccccc2)cc1,x,-8.1,-7.5,-10.0,i,-2.6,0.1,2.2,
Cc1cccc(NC(=O)C2CCCN(S(=O)(=O)c3cccc4nonc34)C2)c1 (stereo not given),x,-3.7,-5.2,-1.0,i,-17.3,-0.6,3.3,
COC(=O)c1ccc(C(C(=O)NCc2ccccc2)N(Cc2cccs2)C(=O)c2cnccn2)cc1 (stereo not given),10.4,-5.3,-84.6,-0.4,i,-4.7,4.3,-3.9,
CC1=C(C(=O)OCC2CCCO2)C(c2ccc(C)cc2)C2=C(CCCC2=O)N1 (stereo not given),x,-20.4,10.2,0.6,i,-26.8,0.8,-4.6,
COC(=O)c1ccccc1NC(=S)NC(=O)COc1ccc(C(C)C)cc1,-4.9,-13.3,-20.8,-8.1,i,0.2,0.0,0.5,
N#CC(C#N)=C(N)CSc1cccc[n+]1[O-],x,2.2,27.9,7.6,i,x,1.7,9.3,
CC(C)c1ccc(NC(=O)c2ccc(NS(C)(=O)=O)cc2)cc1,-16.4,1.6,-19.2,0.9,i,15.3,2.0,-5.4,
O=C1c2ccccc2-c2nccnc21,-6.4,-5.7,-41.0,-2.4,i,-0.9,2.0,6.1,
COc1cccc(CN(C)C(=O)CC[C@H]2O[C@@H](n3cnc4c(NC(=O)c5ccccc5)ncnc43)[C@H](O)[C@@H]2O)c1,-5.9,x,14.8,x,x,x,1.8,1.2,
COc1ccc(CCNC(=S)Nc2ccc(OC)cc2)cc1,x,2.0,13.2,6.9,i,-18.4,-2.1,-2.1,

# Compound activity deposited in PubChem BioAssay by several laboratories.
